Screening data (PubChem BioAssay)
GALR2 ag = GALR2 receptor agonists, primary screen, cell-based | activation, %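 (tested at 5 µM)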 | GALR2-expressing cells, agonist activation read-out | 140,000 tested, 0.48% active;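 active means above mean plus 3 SD of all compounds, about 5% in these data, not always enough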;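 further: 0% = vehicle buffer wells and 100% = reference agonist at full effect; tested in CHO reporter cells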
Target sequence (O43603 whole entry, looked up): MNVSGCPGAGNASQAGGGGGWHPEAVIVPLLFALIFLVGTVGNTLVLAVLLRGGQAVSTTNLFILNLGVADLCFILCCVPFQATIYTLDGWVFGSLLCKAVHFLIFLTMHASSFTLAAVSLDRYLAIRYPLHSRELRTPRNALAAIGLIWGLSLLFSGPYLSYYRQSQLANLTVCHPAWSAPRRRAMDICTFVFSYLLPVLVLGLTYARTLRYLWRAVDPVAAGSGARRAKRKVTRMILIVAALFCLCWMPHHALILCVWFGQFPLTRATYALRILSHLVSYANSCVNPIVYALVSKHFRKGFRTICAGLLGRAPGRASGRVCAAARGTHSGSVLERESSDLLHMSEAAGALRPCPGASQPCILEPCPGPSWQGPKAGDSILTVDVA
PKD1 kinase inh = inhibitors of human PKD1 kinase, biochemical, fluorescence polarization. Serine/threonine-protein kinase D1 (Homo sapiens), Q15139. PKD1 kinase fluorescence polarization assay. inhibition, %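 (about 10 µM by stock and volumes)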. 200,000 tested, 0.056% active. AID 797, 2007;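 active means inhibition of 50% or more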;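 further: controls were vehicle for no effect and a reference inhibitor for full effect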
RGS16-Gao = modulators of RGS16 binding to Galphao, primary screen, biochemical, human proteins, multiplexed bead flow cytometry | Regulator of G-protein signaling 16 (Homo sapiens) + Guanine nucleotide-binding protein … | bead-based flow cytometry RGS16-Galphao binding, fluorescence; actives lie on both sides | binding response (% of control), % at 10 µM | 220,000 tested, 0.38% active | AID 1441, 2008;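 active means below 25% or above 175%, edge rows of some plates excepted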;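 further: Galphao activated by GDP with aluminum fluoride before binding; 100% = wells without compound and 0% = beads without RGS; some results beyond the cut were filed as inactive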
Target sequence (O15492 whole entry, looked up): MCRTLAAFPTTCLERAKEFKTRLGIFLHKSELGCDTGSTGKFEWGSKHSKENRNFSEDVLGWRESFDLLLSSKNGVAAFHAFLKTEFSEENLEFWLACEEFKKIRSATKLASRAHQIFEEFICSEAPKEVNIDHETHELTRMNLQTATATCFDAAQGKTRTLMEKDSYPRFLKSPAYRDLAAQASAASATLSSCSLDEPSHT
Target sequence (P09471 whole entry, looked up): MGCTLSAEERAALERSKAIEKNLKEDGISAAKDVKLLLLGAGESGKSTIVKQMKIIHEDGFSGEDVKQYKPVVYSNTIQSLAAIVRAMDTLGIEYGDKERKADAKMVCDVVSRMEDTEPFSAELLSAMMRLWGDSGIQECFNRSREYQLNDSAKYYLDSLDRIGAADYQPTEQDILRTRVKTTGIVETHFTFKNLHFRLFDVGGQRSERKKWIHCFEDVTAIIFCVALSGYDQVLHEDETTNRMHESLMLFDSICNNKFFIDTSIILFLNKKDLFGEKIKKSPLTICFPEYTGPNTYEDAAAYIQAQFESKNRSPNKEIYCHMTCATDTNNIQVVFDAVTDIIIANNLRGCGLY
HSV augment = enhancers of HSV replication in host cells, fold increase, host cell viability. 220,000 tested, 0.005% active. HSV replication augmentation in cells. AID 1956, 2009. maximum fold increase;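 active means peak rise of 1.5-fold or more in the series; inconclusive means self-fluorescent or not available for retest; tested in PC3 cells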;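 further: first round at 10 µM; read as green reporter fluorescence; hits show the peak of a series up to 25 µM; 1 = signal of infected wells without compound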
INS promoter inh = inhibitors of insulin promoter-driven GFP, primary screen, imaging, TRM-6 cells (human fetal islet line), eGFP reporter, cell count; reporter expression induced with tamoxifen; inhibition, % at 2 µM; 130,000 tested, 0.9% active; AID 1273, 2008;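 active means inhibition above the mean plus 3 SD, with well images judged a real hit on visual review, cut at about 60% in these data, passing the limit was not always enough; inconclusive means inhibition over the cutoff but images rejected on review; inactive means inhibition not above the cutoff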
INS promoter inh cell count = recorded beside INS promoter inh, whose call it bears; normalized cell count, %; measured here: cell count, toxicity; reference of the scale not given here;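 cells exposed to compound for 48 h; stained nuclei by imaging scaled within each plate; lower means fewer cells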
HSV augment primary fold = also measured in HSV augment; calls as there; fold increase; compound at 10 µM; measured here: primary screen fold increase 10 uM; tested in PC3 cells;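 GFP signal in the first replicate; 1 = infected wells without compound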
Active calls of the source: *; i = inactive; ? = inconclusive; nt = not tested or not shown.

SMILES	GALR2 ag	PKD1 kinase inh	RGS16-Gao	HSV augment	HSV augment primary fold	INS promoter inh	INS promoter inh cell count
O=C(CSC(=S)N1CCCCC1)c1ccccc1	nt	-4.5	100.3	i	1.02	nt	nt
O=C(COC(=O)c1ccncc1)Nc1ccccc1	nt	-1.4	100.0	i	1.02	44.4	117.9
CCn1c(SCC(=O)N2c3ccccc3CCc3ccccc32)nc2c1c(=O)n(C)c(=O)n2C	0.8	-7.2	nt	i	0.99	-50.0	73.3
CCC(C)Oc1ccc(/C=C/c2[nH]c(=O)[nH]c(=O)c2[N+](=O)[O-])cc1OC (configuration not stated)	nt	-5.7	103.3	i	0.92	37.5	119.5
CCN(CC)CCCNC(=O)/C(=C\c1cccn1C)NC(=O)c1cccs1	2.8	-13.6	100.7	i	0.92	35.1	129.3
COC(=O)c1sc(N2C(=O)c3oc4ccccc4c(=O)c3C2c2cccc(O)c2)nc1C (configuration not stated)	nt	nt	105.2	i	0.9	nt	nt
Cc1cc2nc(-c3cccc(NC(=O)c4ccc(Br)o4)c3)oc2cc1C	-1.0	0.4	104.2	i	0.87	0.0	88.2
Cc1occc1-c1nnc(SCC(=O)Nc2ccccc2)n1C	nt	-3.9	111.6	i	0.97	nt	nt
C=CCN1C(=O)/C(=C/c2ccc(O)c(OC)c2)S/C1=N/c1nccs1	1.6	-17.6	101.6	?	nt	-72.2	132.6
CN(C(=O)COC(=O)c1ccc([N+](=O)[O-])cc1N)c1ccccc1	nt	-8.6	101.6	i	1.24	nt	nt
Cc1cc(-n2cc(Br)c(=O)[nH]c2=O)nc(-c2ccccc2)n1	nt	nt	96.6	i	0.83	nt	nt
C/C(CC(=O)Nc1ccccn1)=N\NC(=O)C(=O)Nc1cccc(Cl)c1C	-1.7	-5.5	95.9	i	1	12.9	93.4
COc1ccc(CN(C)CC(=O)NC2CCCc3ccccc32)cc1OC (configuration not stated)	nt	0.1	102.6	i	1.03	-40.7	93.4
Cn1c(=O)c2cc(S(=O)(=O)NCCC(=O)Nc3ccccc3F)ccc2n(C)c1=O	-0.9	-4.5	102.4	i	1.04	-27.3	96.4
CC(C)CSc1nsc(N)n1	-2.3	-9.6	97.1	i	0.73	85.7*	81.4*
CC1CCCCN1S(=O)(=O)c1ccc2c(c1)oc(=O)n2CC(=O)O (configuration not stated)	-1.4	18.5	90.0	i	0.97	-14.3	101.6
COc1ccc(C(=S)NC2CCCCC2)cc1	-1.8	-6.1	82.4	i	1.03	6.9	91.0
COC(=O)[C@H](C)NC(=O)/C=C/c1ccc(OC)cc1	-1.2	-0.7	95.5	i	0.93	nt	nt
O=C1OCCN1/N=C/c1ccc([N+](=O)[O-])o1	-0.7	-6.0	106.0	i	0.97	-38.1	27.6
Cc1cccc(C)c1OCC(O)Cn1nnc2ccccc21 (configuration not stated)	-1.4	-2.2	99.8	i	0.93	5.3	136.5
O=C(c1cc([N+](=O)[O-])ccc1N1CCCC1)N1CCCCC1	nt	-1.0	105.9	i	1.11	nt	nt
O=C(CSc1nnc(-c2cccnc2)n1-c1ccccc1)Nc1ccccn1	-2.1	-7.5	99.0	i	0.957	-54.5	104.8
CCC(C)c1ccc(O)c(NC(=O)c2ncn[nH]2)c1 (configuration not stated)	0.6	-8.4	103.8	i	0.88	18.8	93.0
COCCn1c(SCC#N)nnc1-c1ccc2c(c1)OCO2	-1.6	-0.1	101.3	i	1.1	27.3	66.3
O=C(O)CCNc1nc(C(F)(F)F)nc2ccccc12	nt	-7.3	98.8	i	1.22	-2.3	93.1

Compounds above that contain a nitro group on carbon, in the order listed:
SMILES	GALR2 ag	PKD1 kinase inh	RGS16-Gao	HSV augment	HSV augment primary fold	INS promoter inh	INS promoter inh cell count
CCC(C)Oc1ccc(/C=C/c2[nH]c(=O)[nH]c(=O)c2[N+](=O)[O-])cc1OC (configuration not stated)	nt	-5.7	103.3	i	0.92	37.5	119.5
CN(C(=O)COC(=O)c1ccc([N+](=O)[O-])cc1N)c1ccccc1	nt	-8.6	101.6	i	1.24	nt	nt
O=C1OCCN1/N=C/c1ccc([N+](=O)[O-])o1	-0.7	-6.0	106.0	i	0.97	-38.1	27.6
O=C(c1cc([N+](=O)[O-])ccc1N1CCCC1)N1CCCCC1	nt	-1.0	105.9	i	1.11	nt	nt

The listing continues:
SMILES	GALR2 ag	PKD1 kinase inh	RGS16-Gao	HSV augment	HSV augment primary fold	INS promoter inh	INS promoter inh cell count
Cc1cc([N+](=O)[O-])nn1Cc1ccc(C(=O)N/N=C/c2ccc(O)cc2O)cc1	-1.4	-5.8	27.2	i	0.63	66.7	73.8
O=C(NCc1ccco1)C1CC(=O)N(c2ccc(O)cc2)C1 (configuration not stated)	-1.1	-6.7	103.5	i	0.9	12.0	99.5
O=C(Nc1ccc(Cl)cc1)Nc1cccc2nsnc12	nt	nt	99.4	i	0.93	nt	nt
Cc1ccccc1SCc1noc(C(=O)NCC2CCCO2)c1C(=O)O (configuration not stated)	-1.2	-10.1	104.6	i	1.01	43.2	49.1
CCCCCCCn1ccc(O)c(CC(=O)OC)c1=O	nt	3.6	101.2	i	1.05	nt	nt
COC(=O)c1ccc(C(=O)OC)c(N)c1	2.5	-0.9	95.2	i	0.9	nt	nt
COc1ccc(N2CCN(C(CNC(=O)C(=O)NCc3cccs3)c3ccco3)CC2)cc1 (configuration not stated)	nt	-4.1	93.3	i	0.96	nt	nt
O=S(=O)(Nc1nc2ccccc2nc1N1CCN(c2ccccc2)CC1)c1ccc(F)cc1	-1.4	1.9	97.4	i	1.11	-14.3	81.6
CCn1c(=O)c(C(=O)Nc2nc3ccccc3[nH]2)c(O)c2ccccc21	0.8	-1.9	108.4	i	0.98	11.8	168.6
Cc1ccc(-c2nc(-c3ccccn3)no2)cc1Cl	0.3	-4.2	102.3	nt	nt	nt	nt
COc1ccc(CCNC(=O)CSc2nc3c(c(=O)n(C)c(=O)n3C)n2C(C)C)cc1OC	-0.8	-8.4	106.8	i	0.92	nt	nt
O=C(CSC1=NCCS1)NC(NC(=O)CSC1=NCCS1)c1ccccc1	nt	-4.0	103.6	i	0.86	nt	nt
c1cc2nnnn2nc1N1CCCCCC1	-1.5	-7.4	91.3	i	0.96	-89.5	108.8
O=C(/C=C/c1ccc2c(c1)OCO2)c1ccccn1	nt	nt	100.1	i	0.97	nt	nt
CCOc1ccc(NC(=S)NNC(=O)c2ccc(Br)cc2)cc1	nt	-5.9	102.7	i	0.99	nt	nt
O=C(c1cccs1)N(Cc1cc2ccccc2[nH]c1=O)c1ccccc1	0.0	3.3	136.3	i	0.97	-91.7	44.5
CS(=O)(=O)Nc1ccc(C2=NN(S(C)(=O)=O)C(c3cccs3)C2)cc1 (configuration not stated)	nt	11.6	98.8	i	1.18	-45.0	124.9
COc1ccc(N(CC(=O)Nc2c(C)cccc2C)S(=O)(=O)c2ccccc2[N+](=O)[O-])c(OC)c1	nt	-7.4	104.0	i	0.86	-59.0	151.1
COc1ccccc1S(=O)Cc1ccc(C(=O)NCc2ccccc2Cl)o1 (configuration not stated)	-1.4	-5.0	101.9	i	0.94	nt	nt
N#Cc1ccc(C(=O)N/N=C/c2cn(CC(=O)O)c3ccccc23)c(F)c1	-0.6	-9.9	90.8	i	1	-19.4	72.6
CN(C)CC(=O)c1ccc(-c2ccccc2)cc1	-0.4	5.7	90.2	i	0.97	nt	nt
Cc1n[nH]c(=O)nc1N1CCc2ccccc2C1	-2.1	-1.9	102.2	i	0.98	55.6	124.6
Cc1ccc(C(=O)Nc2c3c(nn2C(C)(C)C)CS(=O)(=O)C3)cc1C	0.7	1.6	91.5	i	0.98	9.1	83.0
Cc1ccc(CN(Cc2cc3cccc(C)c3[nH]c2=O)C(=S)NCCCN(C)C)cc1	nt	-2.4	103.2	i	0.72	nt	nt
Cc1csc2c(N3CCN(C(=S)Nc4ccc(C(F)(F)F)cc4)CC3)ncnc12	nt	nt	95.0	i	0.99	nt	nt
Additional entries follow.
SMILES	GALR2 ag	PKD1 kinase inh	RGS16-Gao	HSV augment	HSV augment primary fold	INS promoter inh	INS promoter inh cell count
O=C(Nc1ccccc1-c1nnc(SCc2ccccc2)o1)c1ccccc1	-1.1	4.9	111.2	i	1.07	-45.8	146.3
COC(=O)C1=C(O)/C(=C\c2cc(C)n(-c3ccc(F)cc3)c2C)N=C1C	nt	-3.5	101.1	i	1.16	-60.0	86.6
CC1(C)c2ccccc2-c2nc3ccccc3cc2C1O (configuration not stated)	nt	nt	94.7	i	1.23	nt	nt
CNC(=S)Nc1ccc2nc(C)c(C)nc2c1	-0.6	5.3	94.0	i	0.77	-50.0	80.4
O=c1oc2cc(OCc3c(F)c(F)c(F)c(F)c3F)ccc2cc1-c1ccccn1	0.2	-2.8	106.9	i	1.14	nt	nt
COc1ccc(C(=O)N2CCN(S(=O)(=O)c3ccc(C)cc3)CC2)cc1S(=O)(=O)N1CCOCC1	nt	nt	100.5	i	0.98	nt	nt
O=C(CN1CCc2ccccc2C1)Nc1cc(S(=O)(=O)N2CCOCC2)ccc1N1CCOCC1	0.9	-3.2	104.5	i	0.91	-45.2	108.0
S=C(Nc1ccc2nc(-c3ccccn3)c(-c3ccccn3)nc2c1)N1CCCCC1	nt	-0.6	100.9	?	nt	25.9	114.4
Cn1c2c(c(=O)n(C)c1=O)[C@@H]1c3c(ccc4ccccc34)OC[C@@H]1CO2	-1.4	1.0	83.2	i	0.95	6.7	145.5
COc1ccc(CNC(N)=O)cc1	-2.2	0.8	98.2	i	1.12	-368.8	76.7
Cc1ccc(S(=O)(=O)NC(=O)c2cc(C)n(CC(c3ccccc3)N(C)C)c2C)cc1 (configuration not stated)	nt	0.0	95.5	i	1.05	nt	nt
COc1cc(C(=O)NCCSc2ccc(Br)cc2)cc(OC)c1OC	nt	3.2	100.5	i	0.96	-7.1	80.8
COC(=O)c1ccc(NC(=O)NCCCl)cc1	nt	-7.7	96.9	i	0.9	27.3	66.4
CCOc1ccc(OCCSc2nc(-c3ccccc3)cc(=O)[nH]2)cc1	nt	8.9	103.5	i	1	nt	nt
O=C(CN1C(=O)C2CC=CCC2C1=O)Nc1ccc(S(=O)(=O)N2CCOCC2)cc1 (configuration not stated)	nt	3.2	119.1	i	0.95	72.7*	23.4*
CCOC(=O)/C=C/C(=O)Nc1ccccc1-c1ccccc1NC(=O)/C=C/C(=O)OCC	-0.6	-2.5	103.7	i	0.5	nt	nt
CCNC(=S)N1CCN(c2cccc(C(F)(F)F)c2)CC1	-1.3	-12.4	105.1	i	1.06	17.6	112.8
COc1ccc(S(=O)(=O)N(CC(=O)NC2CC2)C2CCCCC2)cc1Cl	-1.9	-3.2	99.7	i	1	nt	nt
O=C(COc1ccc(Cl)cc1)NCC(=O)N/N=C/c1cccs1	nt	-1.0	106.2	i	0.93	16.7	125.6
C=CCNC(=S)N(CC=C)C1CCS(=O)(=O)C1 (configuration not stated)	0.5	-3.6	63.9	nt	nt	-41.7	103.2
COc1ccc(C(=O)/C(C)=N/O)cc1OC	0.4	-2.2	99.4	i	0.9	nt	nt
CC(=C/c1ccco1)/C=N/NC(=O)c1nnn(-c2nonc2N)c1CN(C)C	nt	-2.3	106.5	i	1.01	25.0	196.7

Retrieved one by one from the list above:
SMILES	GALR2 ag	PKD1 kinase inh	RGS16-Gao	HSV augment	HSV augment primary fold	INS promoter inh	INS promoter inh cell count
COc1ccc(N2CCN(C(CNC(=O)C(=O)NCc3cccs3)c3ccco3)CC2)cc1 (configuration not stated)	nt	-4.1	93.3	i	0.96	nt	nt
O=S(=O)(Nc1nc2ccccc2nc1N1CCN(c2ccccc2)CC1)c1ccc(F)cc1	-1.4	1.9	97.4	i	1.11	-14.3	81.6
CC1(C)c2ccccc2-c2nc3ccccc3cc2C1O (configuration not stated)	nt	nt	94.7	i	1.23	nt	nt
COc1ccc(N(CC(=O)Nc2c(C)cccc2C)S(=O)(=O)c2ccccc2[N+](=O)[O-])c(OC)c1	nt	-7.4	104.0	i	0.86	-59.0	151.1
CCOC(=O)/C=C/C(=O)Nc1ccccc1-c1ccccc1NC(=O)/C=C/C(=O)OCC	-0.6	-2.5	103.7	i	0.5	nt	nt
COC(=O)C1=C(O)/C(=C\c2cc(C)n(-c3ccc(F)cc3)c2C)N=C1C	nt	-3.5	101.1	i	1.16	-60.0	86.6
CN(C(=O)COC(=O)c1ccc([N+](=O)[O-])cc1N)c1ccccc1	nt	-8.6	101.6	i	1.24	nt	nt
